Screening data (PubChem BioAssay)
Measles inh = inhibitors of measles virus growth in infected cells | infected Vero cells, GFP fluorescence, 64 h; stronger effect = lower value | z-score (concentration not given with the values) | hit rate 0.1% among 33,000;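 active means z-score under -3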;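 further: score is relative to mean and SD of the compound wells of a plate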
Starred values were filed as active, the others as inactive. A portion of the library; count on the stated rates, not on these rows.

No.	mol	Measles inh
1	COC(=O)c1c(NC(=O)Cn2cnc([N+](=O)[O-])n2)sc2c1CCCC2	-0.06
2	CN(C)c1ccc(C2/C(=C(\O)c3ccc(F)cc3)C(=O)C(=O)N2Cc2cccnc2)cc1 (centres undefined)	-0.35
3	CC(=O)N1N=C(c2ccccc2)CC1c1cc2cc3c(cc2nc1Cl)OCO3 (centres undefined)	-1
4	Cc1nc2nc(=S)[nH]n2c(C)c1Cc1ccc(Cl)cc1	-0.21
5	CCc1ccccc1NC(=O)c1ccc(NCCc2ccccc2)c([N+](=O)[O-])c1	0.45
6	O=C(O)CCNc1cc(C(=O)O)ccc1C(=O)O	0.35
7	C=CCNc1ncnc2c1cnn2-c1ccccc1	-0.02
8	CCOc1cc2c(cc1OCC)C1C(C(=O)Nc3ccc(Br)cc3C)c3ccccc3C(=O)N1CC2 (centres undefined)	-1.1
9	Cc1nn2c3ccccc3nc2n1CCN1CCCCC1	-0.1
10	CCN(CC)c1nc(C)nc2sc(C(=O)N3CC(C)CC(C)C3)c(C)c12 (centres undefined)	-0.42
11	COCCNC(=O)CCN1C(=O)C(C)Oc2ccc(C)cc21 (centres undefined)	-0.31
12	Cn1c(SCC(=O)c2ccccc2)nc2c([nH]c3ccccc32)c1=O	-0.29
13	CC1=NN(C(=O)c2ccc(Br)cc2)C(O)(C(C)(C)C)C1 (centres undefined)	-0.55
14	CCCCOCCNC(=O)c1ccc(I)cc1	-0.55
15	CC1CC(Nc2ncnc3nc[nH]c23)CC(C)(C)C1 (centres undefined)	-1.3
16	CC(C)Sc1nc2ncnc(N)c2[nH]1	1.6
17	C[n+]1cccc2cc(O)ccc21	0.53
18	c1ccc(OCCCn2c(COc3ccccc3)nc3ccccc32)cc1	-0.99
19	c1ccc(CCc2nc(-c3cccnc3)no2)cc1	-0.03
20	COc1ccc(-n2c(=S)[nH]c3c(c2=O)C2(CCCC2)Cc2ccccc2-3)cc1	1.4
21	O=C(c1ccccc1)c1ccc(Br)c([N+](=O)[O-])c1	-1.2
22	O=C(Nc1ccc(Cl)cn1)c1cnn2c1NC(c1ccco1)CC2C(F)(F)F (centres undefined)	0.71
23	CCOC(=O)c1ccc(N=c2oc3ccccc3cc2C(=O)Nc2ccccc2)cc1	0.7
24	O=C1CCc2cc(S(=O)(=O)N(CCc3ccccc3)Cc3ccccc3)ccc2N1	1.8

Three structures out of the list, arranged by SMILES length, descending.
No.	mol	Measles inh
5	CCc1ccccc1NC(=O)c1ccc(NCCc2ccccc2)c([N+](=O)[O-])c1	0.45
3	CC(=O)N1N=C(c2ccccc2)CC1c1cc2cc3c(cc2nc1Cl)OCO3 (centres undefined)	-1
4	Cc1nc2nc(=S)[nH]n2c(C)c1Cc1ccc(Cl)cc1	-0.21

In a second layout: entries from further up
[13] CC1=NN(C(=O)c2ccc(Br)cc2)C(O)(C(C)(C)C)C1 (centres undefined)
- Measles inh = -0.55
[14] CCCCOCCNC(=O)c1ccc(I)cc1
- Measles inh = -0.55

(list continues)
No.	mol	Measles inh
25	CN(Cc1ccccc1)Cc1nc2c(c(=O)n(C)c(=O)n2C)n1Cc1cccc2ccccc12	-0.51
26	Cc1ccc(-n2c(=O)c3ccccc3n(CC(=O)NC3CCCC3)c2=O)cc1	-0.58
27	COc1ccc(C2C=C(c3ccc(I)cc3)Nc3ncnn32)cc1OC (centres undefined)	-0.17
28	O=C(NCc1ccc2c(c1)OCO2)c1ccc(CSCc2ccccc2Cl)o1	0.27
29	Cc1nc(SCC(=O)N2CCC(C)CC2)c2c(=O)n(C)c(=O)n(C)c2n1	-0.57
30	C=CCNC(=O)c1cc(-c2ccc(F)cc2)on1	0.64
31	O=C(O)c1cccn2c(=O)c3c4c(sc3nc12)CCCC4	0.29
32	O=C(O)C1C2CCC(C2)C1C(=O)Nc1ccc(Oc2ccc(Cl)cc2)cc1 (centres undefined)	0.26
33	Cc1cc(C)cc(-n2c(CCC(=O)O)ccc2-c2cccs2)c1	-0.49
34	CCOc1ccc(NC(=O)CCCN2C(=S)NC(C)(C)CC2C)cc1 (centres undefined)	1.7
35	CCCNC(=O)Cn1cnc2sc(C(=O)N3CCCC3)c(C)c2c1=O	-0.15
36	O=C(Nc1c2c(nn1-c1ccc(F)cc1)CS(=O)C2)c1ccc(Br)cc1 (centres undefined)	-1.1
37	O=C(c1cc(=O)c2ccccc2o1)N1CCc2ccccc2C1	-0.46
38	Nc1ccccc1S(=O)(=O)Nc1ccccc1Cl	-0.13
39	CC(C)C1N=C(c2ccc3c(c2)OCO3)CC(c2ccccc2O)N1 (centres undefined)	1.6
40	CCCC(=O)c1ccc(Oc2nc3c(c(=O)n(C)c(=O)n3C)n2C)cc1	0.1
41	CC(=O)Nc1ccc(Br)cc1-c1nnnn1C	-0.32
42	O=C(NCc1cccs1)c1nn2c(c1Br)NC(c1cccs1)CC2C(F)(F)F (centres undefined)	-0.71
43	O=C1c2ccccc2-c2onc3c(N4CCN(C(=O)c5ccco5)CC4)cc(Nc4ccc(F)cc4)c1c23	0.2
44	CCS(=O)(=O)Nc1cccc(C2=NN(S(C)(=O)=O)C(c3ccccc3F)C2)c1 (centres undefined)	0.9
45	COC(=O)c1ccc(NC(=O)c2c(O)c3cccc4c3n(c2=O)CC4)cc1	-1.3
46	CCc1ccc(OCCNc2cc(Cl)ccc2[N+](=O)[O-])cc1	0.11
47	Cc1ccc(-c2noc(CCC(=O)NC(C)C)n2)cc1	0.33
48	N#Cc1c(-c2ccc(F)cc2)cc(-c2ccco2)nc1SCC(=O)Oc1ccccc1	6.1
49	Cc1nn(C(=O)c2ccc(N3CCOCC3)c([N+](=O)[O-])c2)c(C)c1Sc1ccc([N+](=O)[O-])cc1	-0.76
50	CC(C)OC(=O)C1CC(C)(O)C(=O)C(C(=O)OC(C)C)C1c1ccc(F)cc1 (centres undefined)	-0.85
51	Cc1ccccc1-c1nnc(SCc2ccc(F)cc2)o1	0.01
52	CCC(=O)Oc1ccc2c3c(c(=O)oc2c1)CCC3	0.14
53	CCOC(=O)c1cc2c(=O)n3ccccc3nc2n(CCOC)c1=NC(=O)c1ccc2ccccc2c1	0.34
54	C1=C(c2ccccc2)N2CCN=C2S1	-0.1
55	CCC(=O)Nc1sc2c(c1C(=O)Nc1ccccc1C)CCC(C)C2 (centres undefined)	1.3
56	COC(=O)Cc1cc(=O)[nH]c(/N=C(/N)Nc2ccc(F)cc2)n1	1.4
57	CC(C)CCNC(=O)C1CCC(CNS(=O)(=O)c2ccc(Cl)cc2)CC1 (centres undefined)	0.44
58	COc1ccc(C2/C(=C(\O)c3ccc(C)cc3)C(=O)C(=O)N2c2nc3ccccc3s2)cc1 (centres undefined)	-0.98
59	O=C1CC(NCc2ccccc2)C(=O)N1Cc1ccccc1 (centres undefined)	-0.39
60	CN=C1SC(CC(=O)Nc2ccccc2F)C(=O)N1C (centres undefined)	0.48
61	COc1cc(C(=O)N2CC(=O)Nc3ccc(Br)cc3C2c2ccccc2Cl)cc(OC)c1OC (centres undefined)	-1.2
62	O=C(NCc1cccs1)c1ccc(CNS(=O)(=O)c2ccc(F)cc2)cc1	-0.77
63	CC(C)Cn1c(CO)nc2ccccc21	1.5
64	CSc1ccccc1NC(=O)c1cc(-c2ccco2)on1	0.37
65	CCOc1cc(C2C3=C(CC(C)(C)CC3=O)Nc3ccc4ncccc4c32)ccc1O (centres undefined)	-0.37
66	NC(=O)N1CCn2c3c(c4cc(C5CCCCC5)ccc42)CCCC31 (centres undefined)	-0.36
67	O=[N+]([O-])c1ccc(-c2nc(NCCCO)c3ccccc3n2)cc1	-1.1
68	CCOC(=O)C(C)Oc1cc2c(C)cc(=O)oc2cc1Cl (centres undefined)	-0.67
69	O=C(c1nn2c(C(F)(F)F)cc(-c3ccc(Br)cc3)nc2c1Cl)N1CCN2CCCC2C1 (centres undefined)	-0.69
70	O=C1c2ccccc2C(O)(Cc2ccccc2)N1C(c1ccccc1)c1ccccc1 (centres undefined)	-0.96
71	O=S(=O)(NCCCCCc1nc2ccccc2[nH]1)c1cccc2nsnc12	-0.1
72	CCC(CO)NS(=O)(=O)c1cc(-c2nn(C)c(=O)c3ccccc23)ccc1C (centres undefined)	-1.1
73	Cn1cc(C(=O)NCc2ccco2)c(=O)c2cc(S(=O)(=O)N3CCOCC3)ccc21	0.56
74	CN(C)CCSc1nc2ccccc2n1Cc1ccccc1	3.1
75	CN1CCN(C(=O)c2cc3c(=O)oc4ccccc4c3s2)CC1	0.62
76	CC(=O)NC(Cc1ccccc1)c1nc2ccccc2n1Cc1ccccc1C (centres undefined)	0.42
77	CCCS(=O)(=O)N1CCC(C(=O)NCCOC)CC1	2
78	O=C(O)CN1C(=O)CC(Cc2ccc(Cl)cc2)C1=O (centres undefined)	-0.4
79	O=c1cc(C(F)(F)C(F)F)oc2ccc(Cl)cc12	-0.39
80	Nc1c(C(=O)C2CC2)oc2ccc(Cl)cc12	1.5
81	COc1ccc(Oc2coc3cc(OC(=O)c4cccc(Cl)c4)ccc3c2=O)cc1	-0.3
82	Cc1c(Cl)c([N+](=O)[O-])nn1CCCC(=O)Nc1sc2c(c1C(N)=O)CCC(C)C2 (centres undefined)	1.1
83	O=C(Nc1nc(-c2ccc(Cl)s2)cs1)c1cccc(C(F)(F)F)c1	0.76
84	CC1(C)CC(=O)c2cc(C(=O)NC3CCSC3=O)c(=O)n(-c3ccc(Cl)cc3)c2C1 (centres undefined)	0.69

The listing continues.
No.	mol	Measles inh
85	O=C(Nc1ccc2oc(-c3ccc4ccccc4c3)nc2c1)c1cc([N+](=O)[O-])ccc1Cl	-0.99
86	Cc1cc(C)n(C(=O)c2cc([N+](=O)[O-])ccc2Cl)n1	2.1
87	Cc1ccc(C)c2c1-c1ccccc1S(=O)(=O)N2S(=O)(=O)c1ccccc1	0.46
88	COc1ccccc1Nc1ncc(C(=O)N2CCCC2)c2ccccc12	-0.37
89	Cc1cc([N+](=O)[O-])ccc1N1C(=O)C2C(c3ccc(Cl)cc3)OC3(C(=O)c4ccccc4C3=O)C2C1=O (centres undefined)	-0.01
90	CCOC(=O)c1[nH]c2ccc(F)cc2c1NC(=O)CN1CCOCC1	1.2
91	CCCC1CC2(O)CC(C#N)(C(=O)N2)C1(C#N)C#N (centres undefined)	-1.5
92	Cc1cccc(N2CCN(C(=O)CC(C(=O)N3CCc4ccccc43)n3ccnc3)CC2C)c1 (centres undefined)	-0.66
93	Nc1cc(N)nc(SCCC(=O)O)n1	0.44
94	CN1CCN(C(=O)C2CCCN(S(=O)(=O)c3ccc(Cl)cc3)C2)CC1 (centres undefined)	-0.5
95	COc1ccc(-c2ccc(=O)n(Cc3cccc([N+](=O)[O-])c3)n2)cc1	0.29
96	CC(=O)NC(=O)c1cc2cc(Cl)ccc2oc1=Nc1ccc(C#N)cc1	-0.15

Arranged by value in Measles inh (rising): some entries from above
entry	Molecule	Measles inh
25	CN(Cc1ccccc1)Cc1nc2c(c(=O)n(C)c(=O)n2C)n1Cc1cccc2ccccc12	-0.51
28	O=C(NCc1ccc2c(c1)OCO2)c1ccc(CSCc2ccccc2Cl)o1	0.27
16	CC(C)Sc1nc2ncnc(N)c2[nH]1	1.6
86	Cc1cc(C)n(C(=O)c2cc([N+](=O)[O-])ccc2Cl)n1	2.1

The listing continues:
No.	mol	Measles inh
97	Cc1cc(C)n2nc(SCC(=O)NCc3ccccc3Cl)nc2n1	-0.58
98	O=C(O)CCN1C(=O)SC(Nc2cccc3ccccc23)C1=O (centres undefined)	0.23
99	CCOc1ccc(N2COc3ccc(F)cc3C2)cc1	0.18
100	CCN(CC)c1ccc2cc(-c3nnc(Nc4ccccc4Cl)s3)c(=O)oc2c1	0.73
101	CCC(C)n1c(SCC(=O)N2CCCC2)nc2ccsc2c1=O (centres undefined)	0.37
102	O=C(Nc1ccc2nc(SCC(=O)N3CCc4ccccc43)sc2c1)c1ccccc1C(=O)N1CCOCC1	-0.69
103	COc1cc(C2C(C(=O)Nc3cc(C)ccn3)=C(C)NC3=C2C(=O)CCC3)ccc1O (centres undefined)	0.85
104	CC(=O)N1c2c(cc(Br)cc2S(=O)(=O)Nc2ccc(OC(F)(F)F)cc2)CC1C (centres undefined)	0.67
105	Cc1ccc(C2=NN(CC(=O)NCC3CCCO3)C(=O)CC2)cc1 (centres undefined)	-0.28
106	Cn1c(=O)oc2cc(S(=O)(=O)N3CCc4ccccc4C3CN3C(=O)c4ccccc4C3=O)ccc21 (centres undefined)	-1.2
107	CCOC(=O)CC1(NS(=O)(=O)c2cc(Br)cc3c2N(C(C)=O)C(C)C3)CCCCC1 (centres undefined)	0.77
108	Cc1ccc2nc(-c3ccc(NC(=O)c4ccc(C#N)cc4)cc3)sc2c1	-0.85
109	CCc1ccccc1NC(=O)c1nn2c(c1Br)NC(c1ccc(Br)o1)CC2C(F)(F)F (centres undefined)	-1.1
110	Cc1cc(C)nc(SC2CCCCC2NS(=O)(=O)c2ccccc2)n1 (centres undefined)	0.2
111	CCc1ccc(N2CN(CCc3ccccc3)CNC2=S)cc1	-0.17
112	COc1ccc(NC(=O)CSc2nc3c(c(=O)n2-c2ccccc2)SCC3)c(OC)c1	0.49
113	COc1ccc(C2C(C(=O)N3CCN(c4ccccc4)CC3)c3ccccc3C(=O)N2c2ccc(OC)cc2)cc1 (centres undefined)	-0.62
114	CCOC(=O)C1(CCC(C)C)CC(CSC(=N)N)OC1=O (centres undefined)	-0.59
115	CCN(CC)CCNC(=O)c1ccc2c(=O)n(Cc3ccc4c(c3)OCO4)c(=S)[nH]c2c1	-1.1
116	O=C(NC1CCCCC1)C(c1ccccc1)N1CCN(C(=O)c2ccco2)CC1 (centres undefined)	-1.3
117	N=C(N)SCCS(=O)(=O)c1ccccc1	-1.4
118	O=C(c1ccc(S(=O)(=O)c2cccc(Cl)c2)c([N+](=O)[O-])c1)N1CCC(Cc2ccccc2)CC1	-1.5
119	COc1cccc(NC(=O)Nc2c(C)n(C)n(-c3ccccc3)c2=O)c1	1
120	CCOc1ccc(N2C(=O)CC(N3CCN(C45CC6CC(CC(C6)C4)C5)CC3)C2=O)cc1 (centres undefined)	0.21
121	O=C(CCN1CCOCC1)NC12CC3CC(CC(C3)C1)C2	-0.1
